Assay outcomes as filed in PubChem.
gsp antagonist: antagonizes gsp, the McCune-Albright syndrome mutation; gsp-mutant cells, cAMP HTRF, 30 min; control for the full effect not named in the record; Potency, µM (titrated, usually from 76.9 µM), for the others: top-dose activity change, negative = inhibition, most hits filed as inhibitors; actives 0.4% (n = 340,000); AID 624288; active = falling curve of any shape with a large fitted effect; inconclusive = falling curve, mostly with a smaller effect; inactive = flat or rising curve; cell line not stated here;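 also: intracellular cAMP measured with PDE inhibitor Ro 20-1724 present during compound exposure; potency is read from the fitted curve at half-maximal effect; % is scaled to controls: 0 for no effect and ±100 for the full control effect; nearly all actives have a fitted effect of over 65% in size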
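Cells in G418 medium, seeded 16-24 h, 37C; buffer exchange to DPBS + 1 mM CaCl2, 0.5 mM MgCl2, 0.05% BSA; cpds in DMSO + […] (300 uM stock), 30 min 37C; HTRF cAMP detection.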
D2 ag: activates the human D2 dopamine receptor | DiscoveRx PathHunter D2 beta-arrestin, luminescence, 90 min; 100% = 57 uM dopamine signal | activation, % (test concentration not listed) | AID 624465 | actives 0.084% (n = 360,000); in the data active = activation above about 40%; inconclusive = about 15% to 40%; inactive = below about 15%; also: compound concentration not given in the record; the text of the record calls up to 30% inactive
Target sequence (P14416 whole entry, looked up): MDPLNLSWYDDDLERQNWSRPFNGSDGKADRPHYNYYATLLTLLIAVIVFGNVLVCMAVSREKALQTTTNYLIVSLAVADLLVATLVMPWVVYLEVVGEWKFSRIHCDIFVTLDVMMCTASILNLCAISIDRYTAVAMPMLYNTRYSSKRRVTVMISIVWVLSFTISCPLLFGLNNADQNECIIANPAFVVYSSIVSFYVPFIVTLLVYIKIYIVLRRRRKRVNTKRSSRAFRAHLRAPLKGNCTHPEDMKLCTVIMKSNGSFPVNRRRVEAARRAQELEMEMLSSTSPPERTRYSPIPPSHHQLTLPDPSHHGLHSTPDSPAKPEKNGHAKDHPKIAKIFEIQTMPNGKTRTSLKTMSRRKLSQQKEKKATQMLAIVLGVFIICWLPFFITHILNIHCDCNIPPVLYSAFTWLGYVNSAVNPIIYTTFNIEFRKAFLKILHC
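DiscoveRx PathHunter D2 beta-arrestin cells (2,100/well) attached overnight, then compound-stimulated 90 min at 37 C in HBSS/10 mM HEPES/0.1% Tween-20 buffer; beta-galactosidase complementation read by luminescence after 1 h at ambient temperature. Dopamine 57 uM final (EC100) as control.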
PINK1 modulator: modulators of PINK1 expression | PINK1 immunofluorescence, high-content cytometry, 24 h | Potency, µM (top dose mostly 76.6 µM), for inactives: at the top dose activation (PINK1 increase), hits mostly activators | actives 0.2% (n = 410,000); active = well fitted activation curve with a large enough effect; inconclusive = small, poorly fitted or top-dose-only effect; inactive = flat fitted curve, though single readings scatter; cell line not stated here;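 also: potency is read from the fitted curve at half-maximal effect; % of control where 0% means no effect; nearly all actives have a fitted effect of over 65% in size; a mitochondrial uncoupler was the plate control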
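Measures PINK1 amount and localization on or inside mitochondria by immunofluorescence. Stable cells get compounds at 5 concentrations for 24 hours before fixation and staining; CCCP controls included.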
ClpP mod: qHTS Assay for Activators of ClpP; AID 651965, 2013; purified B. subtilis ClpP, FRET peptide cleavage, 20 min; actives 1.9% (n = 340,000); Potency, µM (top dose mostly 57.5 µM), inactives show at the highest dose activity change, negative = active; ATP-dependent Clp protease proteolytic subunit (Bacillus subtilis (strain 168)), P80244; active = well fitted falling curve with a large enough effect; inconclusive = small, poorly fitted or top-dose-only effect; inactive = no such curve, though single readings can be large or run the other way; also: potency is read from the fitted curve at half-maximal effect; the source files actives as falling curves though it sought activators and does not explain the sign; nearly all actives have a fitted effect of over 65% in size; many hits overshoot -100%
Target sequence (P80244 whole entry, looked up): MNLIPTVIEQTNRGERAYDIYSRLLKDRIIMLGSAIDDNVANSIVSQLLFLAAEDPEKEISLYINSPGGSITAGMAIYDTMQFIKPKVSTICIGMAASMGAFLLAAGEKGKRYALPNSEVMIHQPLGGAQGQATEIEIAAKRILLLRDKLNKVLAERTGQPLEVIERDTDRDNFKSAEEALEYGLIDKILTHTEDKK
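Buffer: 100 mM Tris/HCl pH8, 100 mM KCl, 0.05% low protease BSA, 2.5% glycerol, 0.01% Tween-20. ClpP 10 microg/mL final; 20 min RT; delta FRET normalized to ADEP and DMSO controls.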
Menin-MLL FL inh: displaces fluorescein MLL peptide from human menin. 290,000 tested, under 10 active. FP activity change, % at 61.4 µM. Fluorescence polarization, fluorescein-MLL peptide displacement from menin; inconclusive = falling polarisation curve, or a change in total fluorescence; inactive = total fluorescence flat and polarisation flat or rising; no compound was filed as active; the % refers to the polarisation; negative = inhibition;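 also: % of control where 0% means no effect; inhibitors lower the polarisation; unlabelled MLL peptide was the positive control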
gsp ag: gsp mutant agonism; gsp mutant cells, cAMP HTRF, 30 min; control for the full effect not named in the record; Potency, µM (titrated, usually from 76.9 µM), inactives show at the highest dose activation (cAMP increase), hits mostly activators; actives 0.13% (n = 340,000); active = well fitted activation curve with a large enough effect; inconclusive = small, poorly fitted or top-dose-only effect, or another doubt; inactive = no such curve, though single readings can be large or run the other way; cell line not stated here;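 also: phosphodiesterase inhibitor Ro 20-1724 added with compounds to block cAMP breakdown; potency is read from the fitted curve at half-maximal effect; nearly all actives have a fitted effect of over 60% in size; about a fifth of the inactives were tested at one dose only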
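Cells in DMEM/10% FBS with G418 were pretreated with compounds in DMSO plus […] (300 uM stock) for 30 min at 37C. cAMP was measured by HTRF (cAMP-d2 plus anti-cAMP antibody-K) after 30 min at room temperature.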
Sfp PPTase inh: inhibitors of Bacillus subtilis Sfp phosphopantetheinyl transferase. Q9F4F7. Potency, µM, inactives show max response, negative = inhibition, actives largely listed as inhibitors. Biochemical Sfp PPTase activity, qHTS. AID 1490. actives 3.5% (n = 310,000); active = well fitted inhibition curve with a large enough effect; inconclusive = small, poorly fitted or top-dose-only effect, or another doubt; inactive = no such curve, though single readings can be large or run the other way;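 also: the enzyme is Sfp with the accession as filed and its product quenches rhodamine fluorescence; potency is read from the fitted curve at half-maximal effect; 0% = enzyme reaction without inhibitor and -100% = no enzyme wells; top concentration of the series not given in the record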
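Sfp 15 nM + cpd, 15 min RT; start w/ rhodamine-CoA 5 uM, BHQ-2-YbbR 12.5 uM (final); 50 mM Hepes pH 7.6, 10 mM MgCl2, 0.01% NP-40, 0.01% BSA; read 525/598 nm at 0 and 30 min.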
The depositor's hits bear a star; u = inconclusive; x = no result given; [ ] = dose if it differs, or a comment.

molecule | gsp antagonist | D2 ag | PINK1 modulator | ClpP mod | Menin-MLL FL inh | gsp ag | Sfp PPTase inh
Cc1ccc([N+](=O)[O-])c2cccnc12 | -15% | -2.7 | 1.8% | 0.2% | 0.0 | -16% | -8%
CS(=O)(=O)Nc1cc2c3c(c1)CCC(=O)N3CCC2 | 6% | 2.7 | 1.4% | 1.4% | -0.1 | 7% | -1%
Cc1cc(NC(=O)CCC(=O)N(c2ccccc2)C(C(=O)NC2CCCC2)c2ccncc2)no1 (stereo not drawn) | 2% | -0.5 | -1.6% | 0.9% | -1.7 | -2% | 18%
O=C(Nc1nnc([C@@H]2C[C@H](O)[C@@H](CO)O2)s1)c1ccccc1Cl | x | -4.0 | 2.5% | -1.1% | x | x | x
COc1ccc(-c2nn(-c3ccccc3)cc2C(=O)N2CCN(S(=O)(=O)c3ccccc3C#N)CC2)cc1 | -15% | -5.0 | -0.5% | -17% | x | 9%[15.4 µM] | x
Cc1cccc(C)c1OCC(=O)NNC(=O)CNC(=O)c1ccc(OC(F)F)cc1 | -10% | -1.3 | 1.6% | -2.3% | x | -5% | x
Cc1nn(C)cc1NC(=O)CCSc1nc(-c2ccco2)cc(C(F)(F)F)n1 | 3% | -2.3 | -0.9% | -1.9% | 2.2 | 13% | 2%
COc1cccc(NC2SC(=O)N(c3ccccc3)C2=O)c1 (stereo not drawn) | -1% | -6.9 | 12% | 1.4% | 2.0 | -5% | -7%
c1ccc2c(c1)CCN(Cc1nnnn1Cc1ccc3c(c1)OCO3)C2 | 4% | u | -2.0% | -1.2% | 6.1 | -25% | 1%
COc1ccc(CC(=O)N(C)Cc2cccc(F)c2)cc1S(=O)(=O)N1CCOCC1 | -4% | -3.2 | 0.1% | -7.8% | x | -11% | x
Cc1cccc(C)c1OCc1nnc2c3cnn(C)c3ncn12 | 2% | -2.4 | 19%[38.3 µM] | -0.9% | -1.6 | -4% | 15%
CC(=O)Nc1cccc(-c2ccnc3c2CC(C)(C(=O)Nc2ccc(Cl)c(C(F)(F)F)c2)O3)c1 (stereo not drawn) | x | 14 | u | -9.6% | x | x | x
O=C(NCc1ccon1)C1CCC(=O)N(CCc2cccc(F)c2)C1 (stereo not drawn) | 8% | 1.6 | 0.0% | -2.4% | 0.7 | 22% | 17%
CN(C)CCNc1c(N)c(=O)oc2ccccc12 | 1% | u | 8.7% | x | -1.4 | 3% | -22%
Cc1ccc(S(=O)(=O)N(C)C)cc1NC(=O)COC(=O)COc1ccc2c(c1)CCC2 | -12% | -6.6 | 3.2% | -1.6% | x | -2% | x
Cc1ccc(S(=O)(=O)CC(=O)c2ccccc2[N+](=O)[O-])cc1 | 2% | 7.9 | -0.4% | -0.5% | -6.8 | -2% | 5%
Cc1nc2ccccc2n1-c1nc(-c2ccco2)cc(C(F)(F)F)n1 | -8% | 0.9 | -4.3%[38.3 µM] | -5.4% | -0.2 | -4% | 23%
COc1cc(O)cc2c1[C@@H]1Oc3c(ccc(O)c3CC=C(C)C)[C@@H]1CO2 | -16% | u | -1.1% | -1.3% | x | x | x
CCCCN(C(=O)COC(=O)c1sccc1C)c1c(N)n(CCC)c(=O)[nH]c1=O | x | -4.1 | -0.2% | 1.1% | x | -10% | x
O=C1CC(N2CCN(c3ccccc3Cl)CC2)C(=O)N1c1ccccc1 (stereo not drawn) | 4% | -1.8 | 4.1% | -0.6% | -1.6 | -21% | 5%
c1ccc(-n2nc3ccccc3n2)cc1 | -1% | -1.3 | 1.1% | 25µM* | 0.3 | 0% | 16%
Cc1cccc(N(CC(=O)NC2CC3CCC2C3)S(=O)(=O)c2ccccc2)c1 (stereo not drawn) | -33% | 0.0 | -0.8% | 0.4% | x | 27% | -2%
O=C(c1cnn2c(C(F)(F)F)cc(-c3ccco3)nc12)N1CCCc2ccccc21 | 0% | 1.2 | 11% | -3.7% | 1.1 | -16% | -11%
Cc1ccc2cc(C#N)c(SCc3nnc(-c4ccccc4[N+](=O)[O-])o3)nc2c1 | 10% | -1.8 | 6.0% | -4.3% | 7.1 | -3% | -10%
CCc1ccc2ncc(S(=O)(=O)c3ccc(C)c(C)c3)c(N3CCCC3)c2c1 | -12% | -1.7 | u | -12% | 5.4 | 29% | u
CC(C)(C)c1ccc(OCCOc2ccc(C(C)(C)C)cc2NC=O)c(NC=O)c1 | u | 0.5 | 0.8% | 2.7% | -4.5 | 23% | 56µM*
COc1ccccc1OCCCC(=O)Nc1ccc([N+](=O)[O-])cc1Br | x | 3.0 | -1.6% | x | -1.6 | 14%[15.4 µM] | 8%
CCCCOC(=O)C1=C(C)Nc2ncnn2C1c1cc(OC)c(OC)cc1OC (stereo not drawn) | 5% | -2.2 | 1.1%[38.3 µM] | -0.8% | 1.4 | 20% | 2%
CCOC(=O)[C@H]1[C@H]2COc3ccc(OC)cc3[C@@H]2N2C(=O)CN(C)C(=O)[C@@]12C | 0% | -0.7 | 0.9% | 2.7% | x | -37%[inhibitor] | x
COc1cc(NC(=O)Nc2cccn3nc(COCCO)nc23)cc(OC)c1OC | x | 1.7 | 0.1% | -0.7% | x | x | x
COc1cccc2sc(N(CCCN(C)C)C(=O)COc3ccc(Cl)cc3)nc12 | 4% | 1.5 | 7.6% | 0.4% | 0.4 | -17% | -26%
COCCNc1nc(=S)[nH]c2cc(OC)c(OC)cc12 | 19% | -4.4 | 1.9% | -3.3% | 0.8 | 1% | -11%
COc1ccc2[nH]c(=O)c(CN(C(C)=O)c3ccc(C)c(C)c3)cc2c1 | 7% | 0.3 | 0.3% | 0.5% | -5.8 | -20%[15.4 µM] | 27%
CN(C)c1ccc(N/C=C/C(=O)C(C)(C)C)cc1 | 35µM* | 8.9 | -0.1% | -3.0% | 8.2 | -3% | 50µM*
CC(Sc1nnc2ccccn12)C(=O)Nc1ccc(N2CCOCC2)cc1 (stereo not drawn) | -2% | 0.5 | 0.8% | x | x | -16% | x
C[C@H](CO)N1C[C@H](C)[C@@H](CN(C)S(=O)(=O)c2ccc(Oc3ccccc3)nc2)OCc2cn(nn2)CCCC1=O | x | -1.7 | 0.4% | 1.6% | x | 15% | x
CCCCNC(=O)C1(C)CCCCN1C(=O)c1ccc(F)c(C)c1 (stereo not drawn) | x | -2.8 | -0.9% | 0.7% | x | x | x
CCc1ccc(/C=C2/SC(=S)N(CCC(=O)NCCCN3CCOCC3)C2=O)cc1 | -2% | -1.8 | 3.7% | -1.1% | 7.8 | 21% | -8%
O=c1cc2c(nn1Cc1ccc(Cl)cc1)-c1ccccc1CC2 | 13% | -1.3 | -1.6% | -16% | 5.8 | 16% | u
Cc1ccc(F)c(S(=O)(=O)NC(=O)C2(C)CCN2C(=O)Cc2ccccc2Cl)c1 (stereo not drawn) | x | 4.4 | -0.6% | -3.3% | x | x | x
O=C(CCNS(=O)(=O)c1cccs1)NCc1ccccc1 | 10% | -5.4 | 12%[38.3 µM] | 1.9% | 1.3 | -4% | -6%
O=C(CN(C(=O)CNC(=O)c1cccs1)c1ccc(F)cc1)NC1CCCC1 | -10% | 0.6 | -0.9% | x | -4.5 | 1% | 15%
CCC(=O)Nc1ccc2c(c1)nc(CCN1CCN(c3ccccc3)CC1)n2C | -6% | 3.7 | 0.6% | -2.7% | 1.4 | -13% | 4%
COc1ccc2nc(NCc3cccnc3)sc2c1 | 2% | -1.2 | 0.8% | 0.3% | 9.8 | 5% | 17%
COc1cc(OC)c(C2=Nc3ccc(Br)cc3C(c3ccccc3)N2CC(=O)NN)cc1OC (stereo not drawn) | -9% | -6.0 | 3.8% | -1.0% | -11 | 14% | -3%
Oc1ccc2ccccc2c1CN1CCN(c2ccccc2F)CC1 | 5% | -3.7 | 0.3% | 11µM* | u | -33%[inhibitor] | 6%
O=C1COc2ccc(C(=O)COC(=O)c3ccc(S(=O)(=O)C(F)F)cc3)cc2N1 | -21% | -0.2 | -0.2% | x | x | -7%[15.4 µM] | x
O=C(NCC1CCCO1)c1ccc2c(c1)C(=O)N(C1CCCCC1)C2=O (stereo not drawn) | 3% | -3.5 | 0.2% | -1.1% | 2.2 | 10% | 12%
Cc1[nH]c2ccc(F)cc2c1CCN(Cc1ccncc1)C(=S)Nc1cccc(F)c1 | -21% | 0.7 | 3.7% | -0.9% | 9.4 | 0% | 26%
Cc1ccc2c(c1)N(CCC(=O)NCc1cccs1)C(=O)C(C)O2 (stereo not drawn) | 5% | -2.0 | 2.5% | -1.7% | 1.0 | -36% | 12%

(next part)
molecule | gsp antagonist | D2 ag | PINK1 modulator | ClpP mod | Menin-MLL FL inh | gsp ag | Sfp PPTase inh
COc1ccc2nc(NC(=O)c3ccoc3C)sc2c1 | 5% | -2.2 | 4.9%[38.3 µM] | u | -0.7 | 1% | 9%
Cc1ccccc1C(=O)NC(=S)NCCc1ccccc1 | 8% | 1.0 | 7.2% | 0.8% | 1.5 | 27% | 5%
CC(=O)Nc1ccc(S(=O)(=O)Nc2ccccc2C(=O)N2CCCCC2)cc1 | 5% | -3.7 | 0.8% | x | -14 | 25% | 17%
O=C(Nc1ccccc1)C1=C[C@H](c2ccc(C(F)(F)F)cc2)C[C@H](OCCCCO)O1 | 3% | -3.0 | 3.1% | 1.4% | x | 35% | x
C/C=C\C(=O)Nc1cccc(C2=NOC3(C2)C[C@@H](C(N)=O)N(C(=O)c2ccccc2)C3)c1 (stereo partly drawn) | 5% | -2.8 | -0.9% | -1.1% | -0.1 | 43% | 8%
O=Cc1c(NCc2ccc(F)cc2)c2ccccc2[nH]c1=O | -3% | 1.6 | -0.3% | x | 0.7 | -26% | 12%
CCN(CC)S(=O)(=O)c1cccc(NC(=O)CC2CCCC2)c1 | -2% | -2.6 | 1.2% | x | x | -27%[15.4 µM] | 10%
CCOc1cccc(-c2nnc(SCC(=O)Nc3cccc(OC)c3)n2N)c1 | -5% | -1.6 | 0.0%[38.3 µM] | 2.6% | 3.4 | 5% | 12%
Cc1ccc(N2C(=O)CN(Cc3ccccc3)C2=S)cc1C | -9% | 0.5 | 8.9% | -1.4% | -3.8 | 7%[15.4 µM] | 6%

Compounds were not picked by outcome; about 5.1% have a hit in one of these screens.
